High-throughput results deposited in PubChem by Johns Hopkins Ion Channel Center.
KCNQ2 enhance: enhances the rat KCNQ2 potassium channel; actives 0.54% (n = 310,000); O88943; B-score at 10 µM; CHO-K1 KCNQ2, FluxOR thallium flux fluorescence; hits give high values;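 active = fluorescence ratio B-score at least 3 SD of library B-scores, with initial fluorescence B-score within 3 SD, cut at about 5.3 in these data; same plate scores as AID 2156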;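 also: B-score of peak minus minimum over baseline fluorescence ratio after K+ and Tl+ stimulus; positive B-score means potentiation of KCNQ2 with more thallium influx and brighter signal; only the inactives scoring about 0 or higher are listed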
Target sequence (O88943 whole entry, looked up): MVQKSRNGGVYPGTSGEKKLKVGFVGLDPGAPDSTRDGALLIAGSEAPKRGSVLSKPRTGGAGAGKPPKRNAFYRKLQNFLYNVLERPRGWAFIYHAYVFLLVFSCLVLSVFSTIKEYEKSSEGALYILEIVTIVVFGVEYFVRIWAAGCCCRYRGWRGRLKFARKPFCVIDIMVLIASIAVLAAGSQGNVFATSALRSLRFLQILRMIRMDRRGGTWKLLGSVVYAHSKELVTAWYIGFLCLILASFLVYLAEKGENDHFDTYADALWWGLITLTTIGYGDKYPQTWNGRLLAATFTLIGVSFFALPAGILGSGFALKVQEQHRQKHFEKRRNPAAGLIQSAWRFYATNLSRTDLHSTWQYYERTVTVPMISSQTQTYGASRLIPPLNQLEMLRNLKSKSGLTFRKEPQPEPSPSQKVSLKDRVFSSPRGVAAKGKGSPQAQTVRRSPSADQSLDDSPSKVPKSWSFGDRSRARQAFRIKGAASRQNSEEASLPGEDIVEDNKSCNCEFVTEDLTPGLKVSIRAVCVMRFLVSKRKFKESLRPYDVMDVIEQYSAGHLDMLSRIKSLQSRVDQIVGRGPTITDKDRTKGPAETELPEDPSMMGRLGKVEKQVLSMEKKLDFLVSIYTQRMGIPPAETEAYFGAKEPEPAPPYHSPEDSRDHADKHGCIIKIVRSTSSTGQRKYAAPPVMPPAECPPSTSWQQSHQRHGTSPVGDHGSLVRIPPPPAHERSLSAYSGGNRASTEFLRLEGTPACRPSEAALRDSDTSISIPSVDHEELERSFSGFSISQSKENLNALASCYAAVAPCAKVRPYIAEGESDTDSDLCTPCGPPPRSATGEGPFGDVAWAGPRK
KCNQ2 enhance baseline: also measured in KCNQ2 enhance; calls as there; B-score; compound at 10 µM; measured here: initial fluorescence intensity artifact check;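 brightness before thallium and not channel activity; 0 = typical well and far values either way flag optical interference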
* marks the source's active call; other numbers are inactive results; nt = no result given.

Each structure is followed by: KCNQ2 enhance	KCNQ2 enhance baseline
O=[N+]([O-])c1ccccc1S(=O)(=O)Oc1ccc(/C=N/n2cnnc2)cc1
  0.57	-1.3
CC(NC(=O)CCC(=O)NC(C)C1COc2ccccc2O1)C1COc2ccccc2O1 (centres undefined)
  1.1	-0.02
Cc1onc(-c2ccccc2)c1C(=O)N/N=C/C=C/c1ccccc1
  0.84	-1.5
CCC(=O)Nc1ccc2c(c1)nc(CN1CCN(C(C)=O)CC1)n2C
  2	-1.1
CC(C)N(CC(N)=O)c1ncnc2sc(-c3ccccc3)cc12
  0.28	0.55
CC1CCCN(S(=O)(=O)c2ccc(C(=O)Nc3nnc(-c4ccccc4Cl)o3)cc2)C1 (centres undefined)
  1.2	0.08
O=C(NN1C(=O)C2C3C=CC(C4CC34)C2C1=O)c1ccc(Cl)c(Cl)c1 (centres undefined)
  0.9	-1.2
O=C(COc1ccc2ccc(=O)oc2c1)NC1CCCC1
  0.04	1.4
C/C(=N/N=C1/NC(=O)CC(C(=O)O)S1)c1ccccc1 (centres undefined)
  2.4	0
CC(C)OC(=O)c1c2nc3ccccc3nc2n2c1[nH]c(=O)c1ccccc12
  16	6.4

Continued (4 carried over from the part before).
Each structure is followed by: KCNQ2 enhance	KCNQ2 enhance baseline
O=C(NN1C(=O)C2C3C=CC(C4CC34)C2C1=O)c1ccc(Cl)c(Cl)c1 (centres undefined)
  0.9	-1.2
O=C(COc1ccc2ccc(=O)oc2c1)NC1CCCC1
  0.04	1.4
C/C(=N/N=C1/NC(=O)CC(C(=O)O)S1)c1ccccc1 (centres undefined)
  2.4	0
CC(C)OC(=O)c1c2nc3ccccc3nc2n2c1[nH]c(=O)c1ccccc12
  16	6.4
O=C(O)CCC(=O)NNC(=O)CCC1CCCCC1
  0.21	0.09
CC(=O)c1ccc(N=C2SCCCN2C(=O)C2CCCC2)cc1
  2.1	0.53
COc1cc2nc(COc3ccc(C#N)cc3)n(CC#N)c(=O)c2cc1OC
  0.25	0.63
CC1(C)CC(=O)C(C2=NC(C)(C)Cc3ccccc32)=C(O)C1
  0.36	0.25
C=CCn1c(C)c(C(C)=O)c(SC)nc1=S
  0.45	2.5
CC1CCCN(C(=O)C2CCN(Cc3ccc4c(c3)OCO4)CC2)C1 (centres undefined)
  0.02	2.6
O=C(NCc1ccccc1)c1cc(=O)c2ccccc2o1
  0.45	1
Cc1cccc(NC(=O)CCSc2nncn2C)c1
  2.2	1.5
COc1cccc(C(O)C2OC(=O)c3ccccc32)c1OC (centres undefined)
  0.44	0.39
COc1ccccc1N1CCN(Cc2cn[nH]c2-c2ccc(F)cc2)CC1
  1.3	-0.23

Next section:
Each structure is followed by: KCNQ2 enhance	KCNQ2 enhance baseline
CC(=O)C(C)Oc1ccc2c3c(c(=O)oc2c1)CCCCC3 (centres undefined)
  0.94	-0.86
COCCCN(CC(=O)O)S(=O)(=O)c1ccccc1
  1.6	-0.03
C=CCOc1ccc(C=Nc2ccc(C)c(Cl)c2)c(O)c1
  2.2	-0.2
CC1Oc2ccccc2N(CC(=O)NC2CCCC2)C1=O (centres undefined)
  2	-0.54
COC(=O)c1cc(/C=C/c2ccccc2)on1
  0.31	-0.48
O=C(N/N=C/c1c[nH]c2ccccc12)c1ccc([N+](=O)[O-])cc1Cl
  0.53	0.15
COC(=O)[C@@H]1C[C@@H]2CC[C@@H](O)C[C@@H]2N1Cc1ccc(C(F)(F)F)cc1
  0.02	1.6
CN(c1ccccc1C(=O)Nc1ccc(S(=O)(=O)N2CCCCC2)cc1)S(C)(=O)=O
  0.23	-0.71
CCOc1cc(N2CCOCC2)c(OCC)cc1NC(=O)c1ccc(S(=O)(=O)N(C)C)cc1
  1	1.6
Cc1c(CCC(=O)N[C@@H](C)C(=O)O)c(=O)oc2c(C)c3oc4c(c3cc12)CCCC4
  0.85	0.18

Next entries
Each structure is followed by: KCNQ2 enhance	KCNQ2 enhance baseline
Cc1sc2ncnc(N3CCC(C(=O)NNC(=O)c4ccc(F)cc4)CC3)c2c1C
  0.81	-0.2
COc1ccc(N2C(=O)S[C@@H]3CS(=O)(=O)C[C@@H]32)cc1
  0.56	-0.7
COc1ccc(NC(=O)Cn2nnc(C(=O)NCc3cccs3)c2N)cc1Cl
  1.1	-0.22
COc1ccc(C(=O)Nc2ccc(OCc3ccccc3)cc2)cc1[N+](=O)[O-]
  1.4	-0.38
CC(=O)Oc1ccc(-c2nc3ccccc3c(=O)o2)cc1
  0.2	-2.3
CC1SCC(=O)N(CC(=O)NC2CCCCC2)C1=O (centres undefined)
  0.5	2
O=C(COC(=O)C1CC(=O)N(Cc2ccco2)C1)c1ccc(OC(=O)c2ccccc2)cc1 (centres undefined)
  0.01	0.17
CCOc1ccc2oc(C(=O)Nc3ccc4c(c3)OCO4)c(C)c2c1
  1.3	0.61
CCOC(=O)c1cc(-c2cccnc2)nn1-c1ccccc1
  1.8	-0.07
O=C(NCc1ccccc1)C(=O)NCC1OCCN1C(=O)c1cccs1 (centres undefined)
  1.8	-3.2

Carrying on.
Each structure is followed by: KCNQ2 enhance	KCNQ2 enhance baseline
NC(=O)c1ccccc1NC(=O)c1cccc(C(=O)Nc2ccccc2C(N)=O)n1
  1.1	0
COc1ccc(OC)c(N(CC(=O)N2CCCC2)S(=O)(=O)c2ccccc2)c1
  0.72	-1.5
O=C(O)CC(c1ccc(Cl)cc1)n1cccc1 (centres undefined)
  1.1	-1.8
CCCCNC(=O)CSc1nc2cc3c(cc2c(=O)n1CCC(=O)NCCc1ccc(OC)c(OC)c1)OCO3
  0.16	0.75
COCCNC(=O)CN(CCc1ccccc1)S(=O)(=O)c1ccc(OC)cc1
  0.81	-0.14
CCn1cc(CNCc2ccc(OCC(O)CN(C)Cc3ccccc3)cc2)cn1 (centres undefined)
  0.38	1.1
Cn1nnc2cc(NC(=O)N3CCN(c4ccccn4)CC3)ccc21
  1.5	-0.04
CC(=O)Nc1sc2c(c1C(=O)N1CCOCC1)CCCCC2
  0.69	0.05
O=c1n(-c2ccccc2)c(=O)n2n1CCC2
  0.45	2.2
O=C(O)[C@@H]1Cc2ccccc2N1
  0.57	0.63

Continuation.
Each structure is followed by: KCNQ2 enhance	KCNQ2 enhance baseline
Cc1ccc(CC(NC(=O)c2ccccc2)C(=O)NCC(=O)O)cc1 (centres undefined)
  0.36	1.1
Cc1cccc(NC(=O)C(=O)NCc2ccc3c(c2)OCO3)c1C
  0.24	-0.72
CCCCCCCCCCSc1n[nH]c(NC(C)=O)n1
  0.39	2.1
CCN(CC)S(=O)(=O)c1cccc(NC(=O)COc2ccc(C#N)cc2OC)c1
  7.5*	-1.3*
CCC(=O)NS(=O)(=O)c1ccc(N=NN2CCCCC2)cc1
  0.27	1.6
COC(=O)Nc1nnc(-c2ccccc2Cl)s1
  0.73	-0.11
CN(C)c1nc2c(c(=O)[nH]c(=O)n2C)n1Cc1ccccc1Br
  0.06	0.08
COC(=O)C1=C(C)N(CC2CCCO2)C(=O)C1 (centres undefined)
  0.69	-0.79
Cc1ccc(N=Cc2c(O)n(-c3ccc4c(c3)OCO4)c(=O)c3ccccc23)cc1
  1.5	-0.57
CCCc1[nH][nH]c(=O)c1C(c1ccc(Cl)cc1)C(C#N)C#N (centres undefined)
  1.1	1.7

Later entries:
Compound,KCNQ2 enhance,KCNQ2 enhance baseline
C#CCOC(=O)CCCC(=O)NCCCCCCCC,0.62,-0.17
COc1cc2ccccc2cc1C(=O)Nc1ccc(C)cn1,0.23,-0.39
CC1(C)CC(=O)C=C(NC2CCCCC2)C1,0.88,-0.01
C[C@H](CCC(=O)NCC(=O)O)[C@H]1CC[C@H]2[C@@H]3[C@H](O)C[C@@H]4C[C@H](O)CC[C@]4(C)[C@H]3C[C@H](O)[C@]12C,0.58,nt
CCOC(=O)CSc1nc2c(sc(=S)n2-c2ccc(CC)cc2)c(=O)[nH]1,0.18,-0.21
COc1ccc(S(=O)(=O)NCC2CCCN(C(=O)CNC(C)=O)C2)cc1 (centres undefined),1.1,0.51
CN1CCN(C(=O)CSc2nc(-c3cccs3)ccc2C#N)CC1,0.12,-1.2
COc1ccccc1N1C(=O)c2ccccc2NC1c1ccc(O)cc1 (centres undefined),1.9,-0.39
O=C(Nc1ccccn1)c1ccc(S(=O)(=O)N2CCCCCC2)cc1,1.9,-0.36
O=C(c1ccc2c(c1)OCO2)C1CCCN(C(=O)Nc2ccc(F)cc2F)C1 (centres undefined),0.27,1.3
CCOC(=O)C(NCCc1ccc(F)cc1)(NC(=O)CC)C(F)(F)F (centres undefined),0.85,-0.82
O=C(N/N=C/c1cccs1)C(=O)Nc1cccc(Cl)c1,0.38,2.1

Additional results
Compound,KCNQ2 enhance,KCNQ2 enhance baseline
CCOC(=O)C(C)C1(O)c2ccccc2-c2ncccc21 (centres undefined),0.56,-0.46
CC(CC(F)(F)F)N1CCC(n2nccc2NC(=O)CCCc2ccccc2)CC1 (centres undefined),0.54,-2
CC(NC(=O)Cc1ccsc1)c1ccc(S(N)(=O)=O)cc1 (centres undefined),0.74,-0.59
Cc1ccc(CSCCNC(=O)CN(c2ccc(F)cc2)S(C)(=O)=O)cc1,0.62,-0.69
COc1ccc(OCC(=O)OCCN(C)C)cc1,1.2,1.7
CC(C)(CNC(=O)c1cc(=O)[nH]c2ccccc12)N1CCOCC1,0.45,1.9
CCOC(=O)c1c(NC(=O)Cn2c(=O)oc3ccccc32)oc(C)c1C(C)=O,0.72,0.96
CCN1CCCC1CNC(=O)c1cc2cc(F)ccc2[nH]1 (centres undefined),0.09,0.17
Cc1ccc(C)c(S(=O)(=O)NC(C)C(=O)NCc2ccccn2)c1 (centres undefined),0.38,-1
Cc1nn(CC(=O)Nc2ccc(S(=O)(=O)N(C)C)cc2)c(C)c1[N+](=O)[O-],1.1,-0.43
Cc1ccc2c(c1)N(CC(=O)NCCc1ccc(Cl)cc1)C(=O)c1cccnc1O2,0.79,-1.5
CC(NC(=O)C1CCCC1)c1ccc2c(c1)OCCO2 (centres undefined),1.8,0.16

Later entries
Compound,KCNQ2 enhance,KCNQ2 enhance baseline
COc1ccc(OC)c(CN2CCN(C(=O)c3ccc(NS(=O)(=O)c4cccc([N+](=O)[O-])c4)cc3)CC2)c1,0.99,-2.8
Cc1ccc(NC(=O)NNC(=O)COc2ccc(Cl)cc2)cc1,0.66,-0.53
CC(C)(C)OC(=O)NNC(=O)c1ccc(Cl)cc1,0.93,-0.19
C=CCOc1c(Cl)cc(CNc2ccc(C)c(Cl)c2)cc1OC,0.01,-0.51
O=C(CCc1ccc(S(=O)(=O)N2CCOCC2)cc1)NN=C1CCCCCCC1,1.1,-0.67
CCC(CC)C1C(C#N)=C(N)SC(N)=C1C#N,0.31,-0.9
O=C1C(=O)N(CCOCCO)C(c2ccccn2)/C1=C(\O)c1ccccc1 (centres undefined),0.84,0.01
CN(C)S(=O)(=O)c1cccc(COc2cccnc2[N+](=O)[O-])c1,0.75,-0.3
CCOc1ccc(OCCC(=O)OCC(=O)Nc2ccc(Cl)cn2)cc1,0.14,-0.29
Cc1c(C)c2ccc(OCC(=O)N(C)C3CCS(=O)(=O)C3)c(C)c2oc1=O (centres undefined),1,0.02
Cc1ccsc1C1C(C#N)=C(N)OC2=C1C(=O)CC(C)C2 (centres undefined),1.8,2.1
N[C@@H](Cc1ccccc1)c1nnc2sc(SCc3ccccc3)nn12,1.9,-0.46

As a short view, 4 of the compounds above.
Compound,KCNQ2 enhance,KCNQ2 enhance baseline
CCOc1ccc(OCCC(=O)OCC(=O)Nc2ccc(Cl)cn2)cc1,0.14,-0.29
Cc1c(C)c2ccc(OCC(=O)N(C)C3CCS(=O)(=O)C3)c(C)c2oc1=O (centres undefined),1,0.02
Cc1ccsc1C1C(C#N)=C(N)OC2=C1C(=O)CC(C)C2 (centres undefined),1.8,2.1
N[C@@H](Cc1ccccc1)c1nnc2sc(SCc3ccccc3)nn12,1.9,-0.46

(listing goes on)
Compound,KCNQ2 enhance,KCNQ2 enhance baseline
CN1CCc2c(sc3c2c(NCc2ccco2)nc2nnnn23)C1,0.75,0.68
CCOC(=O)c1cnc(-c2ccccc2)nc1N,0.72,0.78
CC(C)[C@H](NS(=O)(=O)c1ccccc1)C(=O)OCC(=O)Nc1ccccc1Sc1ccccc1,0.98,-1.9
Cc1nc(N)c(Cc2ccccc2F)c(N)n1,0.91,0.24
CC1C(=O)N2CCCc3cc(NC(=O)COc4ccc(Cl)cc4)cc1c32 (centres undefined),1.3,-0.05
COc1cccc(NC(=O)NC2CCCCC2C)c1 (centres undefined),0.19,-0.05
O=C(COC(=O)CC1CC2CCC1C2)Nc1cccc(S(=O)(=O)NC2=NCCCCC2)c1 (centres undefined),1.5,-0.85
CC(C)CNc1ncnc2c1cnn2Cc1ccccc1Cl,1.2,0.23
COc1ccc(/C=N/NC(=O)c2cnccn2)c(OC)c1OC,1.7,-0.93
COCc1[nH]nc2c1C(c1ccccc1F)C(C#N)=C(N)O2 (centres undefined),0.36,0.16
O=C(NN=C1CCCCCCCCCCC1)c1ccccc1F,0.37,-2.1
COc1ccc(S(=O)(=O)NCCc2c(C)nn(C)c2Oc2ccccc2)cc1,0.95,0.27

(further entries)
Compound,KCNQ2 enhance,KCNQ2 enhance baseline
O=c1[nH]c(/C=C\c2cccc(C(F)(F)F)c2)nc(O)c1[N+](=O)[O-],0.68,-0.68
CCN1C(=O)C(=O)N(CC(=O)c2[nH]c(C)c(C(C)=O)c2C)C1=O,2,-0.67
Cn1nc2c(c1C(=O)N1CCCC(C(=O)c3cc(F)ccc3F)C1)CCCC2 (centres undefined),0.22,0.54
CCCn1c(COc2ccccc2OC)nc2ccccc21,0.02,-2.7
CCOc1ccc(N2CSC3=C(C#N)C(c4ccco4)CC(=O)N3C2)cc1 (centres undefined),0.93,-0.07
COc1ccc(OC)c2c1C(=O)C(Cl)=C(Cl)C2=O,0.27,-5.4
O=C(CN1CCCCCC1)OCCN=C1NS(=O)(=O)c2ccccc21,0.15,0.07
COc1ccc(-c2cc(C(=O)OCC(=O)Nc3cc(C)on3)c3ccccc3n2)cc1OC,0.98,0.24

Only part of the results is shown; rates above refer to the full screens.
